N370S GC mod – qHTS Assay for Inhibitors and Activators of N370S glucocerebrosidase as a Potential Chaperone Treatment of Gaucher Disease; 330,000 compounds, 0.092% hits; Potency, µM (highest dose often 59.4 µM), inactives show at the highest dose activity change, negative = inhibition, actives largely listed as inhibitors; Lysosomal acid glucosylceramidase (Homo sapiens), P04062; N370S GC spleen homogenate, 4MU-glucoside fluorescence; AID 2101, 2009;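 note: 0% = full enzyme activity and -100% = no enzyme basal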
FEN1 inhibitor – qHTS Assay for the Inhibitors of Human Flap endonuclease 1 (FEN1); Potency, µM (doses to about 114 µM), for the others: at the highest dose activity change, negative = inhibition, hits mostly inhibitors; AID 588795, 2011; 390,000 compounds, 0.35% hits; P39748; Recombinant FEN1 flap cleavage, fluorescence, 15 min; note: nearly all actives have a fitted effect of over 65% in size
Target sequence (P39748 whole entry, looked up): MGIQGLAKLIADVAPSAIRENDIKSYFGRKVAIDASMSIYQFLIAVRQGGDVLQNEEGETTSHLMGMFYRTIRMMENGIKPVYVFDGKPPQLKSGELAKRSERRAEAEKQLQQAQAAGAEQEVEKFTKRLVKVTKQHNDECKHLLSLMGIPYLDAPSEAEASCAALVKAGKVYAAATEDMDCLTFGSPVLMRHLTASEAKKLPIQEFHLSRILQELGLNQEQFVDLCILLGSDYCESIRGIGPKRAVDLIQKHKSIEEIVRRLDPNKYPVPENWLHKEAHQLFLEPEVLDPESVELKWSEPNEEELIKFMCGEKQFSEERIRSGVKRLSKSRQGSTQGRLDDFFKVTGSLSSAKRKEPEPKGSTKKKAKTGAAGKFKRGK
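Steps: FEN1 (10 nM) dispensed; compound added by pin tool; 15 min at room temperature; substrate added to 50 nM final; reads at 0 min and 15 min; data normalized and fitted (four-parameter Hill).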
An asterisk follows results filed as active; ? = inconclusive; nt = not tested or not shown; [ ] = another dose, or the depositor's remark. Calls come from the whole dose curve; as a rule, active = well fitted curve in the direction sought with a large enough effect; inconclusive = small, poorly fitted or top-dose-only effect, or another doubt; inactive = no such curve, though single readings can be large; an effect the other way counts as inactive or inconclusive. Unless noted, % is set by controls: 0 for no effect and ±100 for the full control effect; potency is the fitted concentration of half-maximal effect. An excerpt; most or all hits stand in other tables.

The first three compounds as a preview:
(1) Cc1cc(Cl)ccc1OC(C)C(=O)NN=C1CCCCCC1 (stereo not given)
(2) Cc1cccc(C(=O)N2CCc3cc(CNS(=O)(=O)c4ccc(Cl)s4)ccc32)c1
(3) O=C(CCCOc1ccc(Cl)cc1Cl)Nc1ccncc1
compound no. | 1 | 2 | 3
FEN1 inhibitor | 8% | 0% | -13%
N370S GC mod | 5% | nt | -14%

Main list, previewed entries included:
(1) Cc1cc(Cl)ccc1OC(C)C(=O)NN=C1CCCCCC1 (stereo not given)
(2) Cc1cccc(C(=O)N2CCc3cc(CNS(=O)(=O)c4ccc(Cl)s4)ccc32)c1
(3) O=C(CCCOc1ccc(Cl)cc1Cl)Nc1ccncc1
(4) Cn1c(N)c(C(=O)COC(=O)/C=C/c2cccc(C(F)(F)F)c2)c(=O)n(C)c1=O
(5) Cc1cc(/C=C2\NC(=S)N(C)C2=O)ccc1N1CCCC1
(6) CC(C)OC(=O)CSc1nc(N)c(C#N)c(-c2cccs2)c1C#N
(7) Cc1cc(Cl)ccc1OC(C)C(=O)Nc1ccc([N+](=O)[O-])cn1 (stereo not given)
(8) CC(C)=NNC(=O)CN1C(=O)NC2NC(=O)NC21 (stereo not given)
compound no. | 1 | 2 | 3 | 4 | 5 | 6 | 7 | 8
FEN1 inhibitor | 8% | 0% | -13% | -1% | -7% | 9% | -7% | 6%
N370S GC mod | 5% | nt | -14% | nt | -8% | 8% | 1% | 4%

(9) CCOC(=O)CNC(=O)CSc1ncnc2c1nnn2-c1ccc(F)cc1
(10) Cc1ccc(C(=O)/C=C/Nc2ccc([N+](=O)[O-])cc2Br)cc1
(11) COc1ccc(CCNC(=O)[C@H](C)N2C(=O)N3CCc4c([nH]c5ccccc45)[C@@]3(C)C2=O)cc1
(12) CCOC(=O)C1CCN(C(=O)C2COc3ccccc3C2)CC1 (stereo not given)
(13) Cc1ccc(OCC(=O)N/N=C\c2c(C)n(C)c3ccccc23)c([N+](=O)[O-])c1
(14) Cc1ccc2nc(NCc3ccccc3)c(C=NCc3ccccc3)c(=O)n2c1
(15) O=C1CSC(=S)N1/N=C/c1cccnc1
(16) O=C(NCCO)C(c1ccccc1)c1ccccc1
compound no. | 9 | 10 | 11 | 12 | 13 | 14 | 15 | 16
FEN1 inhibitor | 0% | 10% | -20% | 3% | -15% | -18% | 4% | 5%
N370S GC mod | 3% | ? | ? | nt | 10% | 18% | 1% | -4%[2.35 µM]

(17) COc1cc(-c2nc(CN(C)Cc3nnc(C)o3)c(C)o2)ccc1F
(18) Cc1ccc(NC(=O)Nc2ccccc2C(N)=O)cc1
(19) NS(=O)(=O)c1cnccc1Nc1ccc(Cl)c(Cl)c1
(20) CCOc1cc2[nH]c(=O)n(CCCC(=O)N(C)Cc3ccccc3)c(=O)c2cc1OCC
(21) Cc1nnc(SCC(=O)NC(C)(C)C)n1NCc1ccc(Cl)cc1
(22) O=C(NCC(c1ccco1)N1CCN(c2ccc(F)cc2)CC1)OCc1ccccc1 (stereo not given)
(23) C=CCSC1=C(C#N)C(c2ccccc2)CC(=O)N1 (stereo not given)
(24) O=C(/C=C/c1ccc(S(=O)(=O)N2CCOCC2)cc1)NCCc1ccc(C(F)(F)F)cc1
compound no. | 17 | 18 | 19 | 20 | 21 | 22 | 23 | 24
FEN1 inhibitor | -3% | -14% | -3% | 4% | -3% | 4% | 8% | 19%
N370S GC mod | 5% | -12% | 3% | 5% | -2% | 0% | 5% | nt

(25) Cc1ccc(C(O)c2nccn2C)o1 (stereo not given)
(26) CCCOc1ccc(S(=O)(=O)n2cc(F)c(=O)[nH]c2=O)cc1
(27) COCCCN1C(=O)N(c2ccc(F)cc2)C(=O)C1CC(=O)Nc1ccc(OC)cc1 (stereo not given)
(28) CCOC(=O)N1CCN(C(=O)CS(=O)(=O)c2cn(Cc3ccccc3C)c3ccccc23)CC1
(29) C[C@@H]1CC=C[C@H]2[C@H]1C(=O)N(Cc1ccccc1)[C@H]2c1ccoc1
(30) O=C(NCCc1ccc(Cl)cc1)C1CCN(C(=O)N2CCOc3ccccc32)CC1
(31) COc1ccc(CCNC(C)=O)cc1
(32) N#Cc1c(NC(=O)c2cc(C3CC3)on2)sc2c1CCC2
compound no. | 25 | 26 | 27 | 28 | 29 | 30 | 31 | 32
FEN1 inhibitor | -4% | 2% | 21% | 4% | -1% | -18% | 6% | -2%
N370S GC mod | -9% | -12% | -7% | 6% | -2% | -10% | 2% | 9%

(33) Cc1ccc2c(CN3CCCCC3)cc(=O)oc2c1C
(34) CCOC(=O)c1c(-c2ccccc2)csc1NC(=O)c1nc(SCC)ncc1Cl
(35) O=C1N=NC2=C1c1c3ccccc3c(O)n1CC2
(36) N#C/C(=C\c1ccc(F)c(F)c1)C(=O)NC1CCCCC1
(37) Cc1cc(C)c(S(=O)(=O)NCC23C=CC(O2)C2C(=O)N(c4ccccc4)C(=O)C23)c(C)c1 (stereo not given)
(38) CN1CCN(c2oc(/C=C/c3ccccc3)nc2C#N)CC1
(39) CCCSc1nnc2c(n1)OC(CC)N(C(C)=O)c1ccccc1-2 (stereo not given)
(40) Cc1ccc(Cl)cc1NC(=O)COC(=O)CCN1C(=O)C2CC=CCC2C1=O (stereo not given)
compound no. | 33 | 34 | 35 | 36 | 37 | 38 | 39 | 40
FEN1 inhibitor | 13% | -5% | -21% | -2% | 0% | -4% | 17% | 0%
N370S GC mod | -4% | nt | -1% | 2% | -20% | ? | nt | nt

Continued; the last 2 above are carried over.
(39) CCCSc1nnc2c(n1)OC(CC)N(C(C)=O)c1ccccc1-2 (stereo not given)
(40) Cc1ccc(Cl)cc1NC(=O)COC(=O)CCN1C(=O)C2CC=CCC2C1=O (stereo not given)
(41) COc1ccccc1C(=O)NNC(=O)C(=O)NC(C)(C)C
(42) Cc1oc(-c2ccc(Cl)cc2)[n+]([O-])c1C
(43) CCCN(CCC)CCCNc1ccc(C(=O)Nc2cccc(OC)c2)cc1[N+](=O)[O-]
(44) Cc1ccc(C(=O)C(C)OC(=O)CCS(=O)(=O)c2ccc(C)cc2)cc1 (stereo not given)
(45) COC(=O)c1nnn(-c2ccccc2)c1N
(46) CCC(=O)n1nc(-c2ccccc2)nc1NCc1ccccc1
(47) O=C(NCc1cccs1)C1CCN(c2nc3ccccc3o2)CC1
(48) CSc1ccc(CN2C(=O)NC3(CCCCCCC3)C2=O)cc1
compound no. | 39 | 40 | 41 | 42 | 43 | 44 | 45 | 46 | 47 | 48
FEN1 inhibitor | 17% | 0% | 17% | 0% | 12% | -12% | -6% | 0% | -1% | -2%
N370S GC mod | nt | nt | -10% | 20% | -7% | nt | 29% | -10% | 7% | 12%

(49) CCOC(=O)CC1CCCCN1C(=O)CCCn1nnnc1CN1CCC(C)CC1 (stereo not given)
(50) COc1ccc(C(=O)c2c(N)c(-c3nc(-c4ccccc4)cs3)c3ccccn23)cc1
(51) OC(COc1c(Cl)cc(Cl)cc1Cl)CN1CCCCC1 (stereo not given)
(52) O=C(Nc1ccccc1)c1ccc(Br)c(S(=O)(=O)Nc2ccccn2)c1
(53) Cn1ccc(C(=O)Oc2ccc(C(=O)Nc3ccc(F)cc3F)cc2)n1
(54) CCOC(=O)/C=c1\s/c(=C\c2c(OC)ccc3ccccc23)c(=O)n1CC(=O)NCC1CCCO1 (stereo not given)
(55) Cc1c(CCNC(=O)c2ccco2)sc2nc(-c3ccc(F)cc3)nn12
(56) Cc1cc(Cl)cc(C)c1OCCn1ccnc1
compound no. | 49 | 50 | 51 | 52 | 53 | 54 | 55 | 56
FEN1 inhibitor | -5% | -1% | 0% | -7% | 9% | -2% | -9% | 20%
N370S GC mod | -6% | nt | -8% | -23% | -9% | 7% | nt | -4%

(57) O=C(Nc1cccc(-c2cccc(F)c2)c1)C1CCN(C2CCOCC2)CC1
(58) O=C(CSCc1ccc(Cl)cc1)NN=C1CCCCCC1
(59) Cc1oc(-c2ccc(Cl)cc2)nc1CN1CCCC(C(=O)N2CCN(C(=O)c3ccco3)CC2)C1 (stereo not given)
(60) COc1ccc2nc(NCCO)[nH]c2c1
(61) Cc1cc(NC(=O)CSc2nnc(-c3cccnc3)n2C2CCCCC2C)no1 (stereo not given)
(62) O=C(NNS(=O)(=O)c1ccc([N+](=O)[O-])cc1)c1cnn(-c2ccccc2)c1-n1cccc1
(63) O=C(NC1CCCCCCC1)c1ccc(S(=O)(=O)N2CCCC2)cc1
(64) CCOC(=O)CSc1cc(CS(C)(=O)=O)nc(-c2ccccn2)n1
compound no. | 57 | 58 | 59 | 60 | 61 | 62 | 63 | 64
FEN1 inhibitor | -16% | -9% | 15% | 7% | 11% | 6% | -8% | -2%
N370S GC mod | -29% | 8% | -2% | -2% | -6% | -24% | ? | 26%

(65) O=C(NCCCN1CCOCC1)c1cc2nc(-c3ccco3)cc(C(F)(F)F)n2n1
(66) C/C(=N/NC(=O)CNS(=O)(=O)c1ccc(C)cc1)c1cccc([N+](=O)[O-])c1
(67) COc1ccc(CCNC(=O)C/C(C)=N/NC(=O)C(c2ccccc2)c2ccccc2)cc1OC
(68) CC(=O)CSc1nc(-c2ccccc2)[nH]c1S(=O)(=O)c1ccc(C)cc1
(69) O=C(NCCCN1CCOCC1)c1sc2ccccc2c1Cl
(70) CC(=O)Nc1nc(C)c(C(C)(C)C)s1
(71) O=C(CN1C(=O)C2C3c4ccccc4C(c4ccccc43)C2C1=O)N1CCOCC1 (stereo not given)
(72) O=S(=O)(Nc1ccc2c(c1)OCCO2)c1c(F)cccc1F
compound no. | 65 | 66 | 67 | 68 | 69 | 70 | 71 | 72
FEN1 inhibitor | -5% | 0% | -19% | 10% | -2% | -2% | 3% | -1%
N370S GC mod | 0% | -3% | 29% | nt | -7% | -2% | 21% | -7%

(73) COCCNC(=O)C(c1cccs1)N(Cc1cccs1)C(=O)Cn1nnc2ccccc21 (stereo not given)
(74) COc1ccc(-c2cc(=O)oc(-c3cccc(C)c3)n2)cc1
(75) COc1ccc(OC)c(NC(=O)C(=O)NNC(=O)C23CC4CC(CC(C4)C2)C3)c1
(76) CC(=O)OCCN(CCOC(C)=O)c1c(C)[nH]c(=O)[nH]c1=O
(77) CN1C[N+]([O-])=C(c2ccccc2)C1(C)C
(78) COc1ccc(S(=O)(=O)Nc2cccc3c2O[C@H](CN(C)Cc2ccncc2)[C@@H](C)CN([C@H](C)CO)C3=O)cc1
(79) O=C(CCC1CCCCC1)NNC(=O)NC12CC3CC(CC(C3)C1)C2
(80) CC(=O)Oc1ccc(C(=O)O)c(OC(C)=O)c1
compound no. | 73 | 74 | 75 | 76 | 77 | 78 | 79 | 80
FEN1 inhibitor | 5% | -4% | -7% | 1% | -11% | -2% | 9% | -10%
N370S GC mod | 14% | -1% | 3% | 0% | 2% | nt | 7% | 8%

The last 4 entries of the part before come first, to join the parts:
(77) CN1C[N+]([O-])=C(c2ccccc2)C1(C)C
(78) COc1ccc(S(=O)(=O)Nc2cccc3c2O[C@H](CN(C)Cc2ccncc2)[C@@H](C)CN([C@H](C)CO)C3=O)cc1
(79) O=C(CCC1CCCCC1)NNC(=O)NC12CC3CC(CC(C3)C1)C2
(80) CC(=O)Oc1ccc(C(=O)O)c(OC(C)=O)c1
(81) O=C(CCOc1ccccc1)Nc1ccnn1C1CCN(Cc2ccc(CO)o2)CC1
(82) COc1ccc(-c2c(C)oc3c(CN4CCCC(C)C4)c(O)ccc3c2=O)cc1OC (stereo not given)
(83) CC(C)c1ccc(/C=C2\SC(=O)N(CC(=O)NCCCn3ccnc3)C2=O)cc1
(84) CC1CCN(S(=O)(=O)c2cn(CC(=O)Nc3cccc(C(F)(F)F)c3)c(=O)c3ccccc23)CC1
(85) COc1ccc(OCC(=O)N/N=c2\oc3c(OC)cccc3cc2C(N)=O)cc1
(86) O=C(CCCC1=NS(=O)(=O)c2ccccc2N1)N1CCN(c2ccc([N+](=O)[O-])cc2)CC1
(87) O=C(CN1C(=O)c2ccc([N+](=O)[O-])cc2C1=O)Nc1nccs1
(88) OCCN(Cc1ccccc1)Cc1ccc(C(F)(F)F)cc1
compound no. | 77 | 78 | 79 | 80 | 81 | 82 | 83 | 84 | 85 | 86 | 87 | 88
FEN1 inhibitor | -11% | -2% | 9% | -10% | 7% | -2% | 7% | -21% | 6% | -11% | -2% | -15%
N370S GC mod | 2% | nt | 7% | 8% | -2% | 21% | ? | nt | 7% | -20% | ? | -5%

(89) COc1cc(C#Cc2c(C=O)n(C)c3ccccc23)cc(OC)c1
(90) O=C(c1ccccc1)N1CCN(c2ccc([N+](=O)[O-])c(N3CCOCC3)c2)CC1
(91) CCOc1ccccc1C(=O)NCC(=O)OCC(=O)N1C(C)CCCC1C (stereo not given)
(92) O=C(O)CCC(=O)Nc1ccc(Br)cc1C(=O)c1ccccc1Cl
(93) COc1ccccc1NS(=O)(=O)c1cccc(C(=O)NCC(c2ccco2)N(C)C)c1 (stereo not given)
(94) Cc1cc(=O)n2nc(N3CCCC(C(=O)NC(C)c4ccccc4)C3)sc2n1 (stereo not given)
(95) COc1ccc(C(=O)OCC(=O)c2ccc(CNC(C)=O)s2)cc1
compound no. | 89 | 90 | 91 | 92 | 93 | 94 | 95
FEN1 inhibitor | -11% | -1% | -4% | -14% | -3% | 5% | -4%
N370S GC mod | nt | -8% | 1% | -10% | 1% | 3% | nt
